Hsc70 – small molecules displacing fluorescent ligand from Hsc70 – biochemical, fluorescence polarization, primary screen (AID 568); one-dose displacement, % at 20 µM; IC50 in µM for titrated hits; Hsc70 fluorescence polarization, probe displacement; higher % means a stronger effect; strong numbers were not always called active; 83,000 tested, under 10 active;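 active = displacement above 50% without optical interference and an IC50 on retest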;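 note: ATPase domain with a fluorescein-tagged ATP probe; 0% = vehicle and 100% = excess ADP; read after one hour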
MT1-MMP promoter – inhibitors of MT1-MMP promoter transcription, cell-based, luciferase reporter, luminescence (AID 618). MT1-MMP promoter luciferase reporter cells, luminescence. calls from a first round at 10 µM; hits with a dose series show EC50 in µM. actives 0.62% (n = 87,000);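 active = over half of the reporter light lost at 10 µM or EC50 under 50 µM; inactive = the rest and hits that failed the dose series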;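 note: actives suppress MT1-MMP promoter-driven transcription so potencies describe inhibitors; HT1080 fibrosarcoma cells; overnight exposure; toxic or luciferase-blocking compounds were not removed from the actives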
WNV protease inh – inhibitors of West Nile virus NS2B-NS3 protease. P06935. WNV NS2B-NS3 protease, fluorogenic substrate Ex360/Em465; stronger effect = lower value. z-score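 (tested at a level between 10 and 100 µM)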. actives 0.18% (n = 65,000). AID 577;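 active = z-score at -3 or under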;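 note: score is relative to mean and spread of the compound wells of a plate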
Target sequence (P06935 1371-1501 limits assumed): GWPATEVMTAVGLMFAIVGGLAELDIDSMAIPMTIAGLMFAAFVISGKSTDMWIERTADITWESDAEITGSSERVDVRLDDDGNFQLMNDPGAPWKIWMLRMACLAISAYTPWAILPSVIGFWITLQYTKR
Target sequence (P06935 1502-1679 limits assumed): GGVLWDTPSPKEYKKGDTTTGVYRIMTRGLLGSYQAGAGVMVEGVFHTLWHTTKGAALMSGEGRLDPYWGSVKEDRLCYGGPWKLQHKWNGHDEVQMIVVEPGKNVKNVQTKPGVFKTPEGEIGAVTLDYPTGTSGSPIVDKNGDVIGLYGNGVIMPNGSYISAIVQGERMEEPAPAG
* = called active by the depositor; i = inactive; . = not tested or not shown; + = active, no number. Only part of the results is shown; the hit share may differ from the screen's.

Molecule	Hsc70	MT1-MMP promoter	WNV protease inh
O=C(CSc1ncc(-c2ccccc2)n1CC1CCCO1)N1CCCCC1 (stereo unspecified)	0.0%	i	1.1
COc1cc(Cl)c(S(=O)(=O)N2CCOCC2)cc1Cl	-3.3%	i	-0.19
Cc1ccc2c(c1)NCC(C(=O)NCc1ccccc1)O2 (stereo unspecified)	1.6%	i	-0.25
COc1ccc(C=C(c2ccc(OC)cc2)c2ccc(OC)cc2)cc1	-3.5%	i	.
CCOC(=O)c1sc(/N=C/Nc2nc(C)c(C(=O)OCC)s2)nc1C	-4.8%	i	-1.45
COc1ccc2nc(COC(=O)c3ccco3)c(C(C)=O)[n+]([O-])c2c1	2.0%	i	-1.11
Nc1nc(CN2CCc3ccccc3C2)nc(Nc2ccccc2)n1	1.5%	i	-1.04
Cc1ccccc1NC(=O)NCc1ccco1	-2.0%	i	1.19
CCN(CC)C(=O)CCc1nc2sc3c(c2c(=O)[nH]1)CCCC3	-2.3%	i	.
O=C(Nc1cccc(Cl)c1)N1CCN(C/C=C/c2ccccc2)CC1	-3.7%	i	-0.21

(cont.)
Molecule	Hsc70	MT1-MMP promoter	WNV protease inh
N=c1cc(C2(O)CCCCC2)n2c(nc3ccccc32)s1	5.4%	+	0.65
C=CCNC(=O)c1scc2c1CCCC2	0.6%	i	-0.88
CCCCSc1nc(O)c(C2OC(=O)c3c2ccc(OC)c3OC)c(=O)n1-c1ccccc1 (stereo unspecified)	-5.5%	i	.
O=C(CN1C(=O)C2C3C=CC(C3)C2C1=O)N1CC=C(c2ccccc2)CC1 (stereo unspecified)	-10.1%	i	0.49
COC(=O)c1c(NC(=O)c2nn(C)cc2Cl)sc2c1CCCC2	-4.8%	i	0.34
Cc1c(N(C)C(=O)c2ccco2)c(=O)n(-c2ccccc2)n1C	-0.5%	i	-0.14
COc1ccc(-c2nnc(SCC(=O)N3CCCCC3)o2)cc1OC	-3.7%	i	0.32
Cc1ccccc1NC(=O)C1CCCN(S(=O)(=O)c2c(C)noc2C)C1 (stereo unspecified)	-2.0%	i	-0.74
COC(=O)CSc1nnc(CNS(=O)(=O)c2ccc(C)cc2)n1C	-1.9%	i	-0.55
c1ccc(-n2cnc3cc(NCc4ccccn4)ccc32)cc1	2.9%	i	0.21

Additional results follow.
Molecule	Hsc70	MT1-MMP promoter	WNV protease inh
Cn1c(CCN2CCCCC2)nc2cc(NS(=O)(=O)c3ccc(Cl)cc3)ccc21	-6.2%	i	-0.2
O=C1C2C3C=CC(C3)C2C(=O)N1CNc1ccc(O)cc1 (stereo unspecified)	-7.3%	i	-0.44
Cc1ccc(OCC(=O)NC2CCS(=O)(=O)C2)cc1 (stereo unspecified)	5.4%	i	.
O=C(Oc1ccc2c(c1)OCO2)c1cccs1	4.6%	i	-0.23
CCC(Cc1ccccc1)NC(=O)CCn1cccc1 (stereo unspecified)	5.6%	i	.
O=C(CSc1nc2ccccc2c(=O)n1C1CC1)NCc1ccccc1	-3.4%	i	-0.06
CC(=O)n1c(Cl)c(NC(=O)CCl)c2ccccc21	-4.0%	i	.
O=C(CN1CCN(Cc2ccccc2F)C1=O)NCc1cccnc1	1.6%	i	0.22
O=C1CCCN1CCCNc1ncnc2c1[nH]c1ccc(Cl)cc12	1.6%	i	-0.75
CCOC(=O)CCc1c(C)nc2cc(-c3ccc(F)cc3)[nH]n2c1=O	-1.9%	i	0.31

Next structures follow.
Molecule	Hsc70	MT1-MMP promoter	WNV protease inh
O=C(O)c1[nH]c2ccccc2c1-c1ccccc1	7.4%	i	.
CCOC(=O)C1CCN(C(=O)c2ccco2)CC1	2.3%	i	-0.81
Cn1c(Cn2c(=O)sc3ccccc32)nnc1SCC(=O)N1CCCC1	0.4%	i	-0.55
CC(C)C(=O)Nc1ccc2c(c1)C(=O)N(CCC(=O)O)C2=O	-5.8%	i	-0.65
CC(C)(C)NS(=O)(=O)c1ccc(OCC(=O)Nc2ccc3c(c2)OCCO3)cc1	2.5%	i	1.03
CN(C)S(=O)(=O)c1cccc2nsnc12	-8.0%	i	-0.8
CC1CCCC(C)N1CC(O)COc1ccc(Cl)cc1 (stereo unspecified)	2.8%	i	-0.24
CS(=O)(=O)N(CC(=O)N1CCN(c2ccc(F)cc2)CC1)C1CCCCC1	1.2%	i	.
CC(=O)N1CCC(C(=O)Nc2nc(-c3ccccc3)ns2)CC1	-6.0%	i	0.0098
O=S(=O)(c1ccc(OCC(O)CNCc2ccco2)c(Cl)c1)N1CCOCC1 (stereo unspecified)	3.0%	i	-1.16

Pulled by structure from the list above (two):
Molecule	Hsc70	MT1-MMP promoter	WNV protease inh
O=S(=O)(c1ccc(OCC(O)CNCc2ccco2)c(Cl)c1)N1CCOCC1 (stereo unspecified)	3.0%	i	-1.16
CC(C)C(=O)Nc1ccc2c(c1)C(=O)N(CCC(=O)O)C2=O	-5.8%	i	-0.65

(more compounds)
Molecule	Hsc70	MT1-MMP promoter	WNV protease inh
CCCCN(CCCC)CP(=O)(c1ccccc1)c1ccccc1	3.9%	i	.
COc1ccc(-c2cn3cccnc3n2)cc1NC(=O)c1ccc(Br)o1	1.6%	i	-0.16
CCn1c(N)c(C(=O)NCC2CCCO2)sc1=S (stereo unspecified)	-2.0%	i	-0.14
COc1cccc(C2C(C(=O)c3cccs3)=C(O)C(=O)N2c2cc(C)on2)c1 (stereo unspecified)	2.2%	i	0.15
Cc1nnc(SCc2nc3ccccc3s2)n1-c1ccccc1	-20.4%	i	-0.64
O=C(CCS(=O)(=O)c1cccs1)N1CCCC1	-1.9%	i	-0.03
CCCSc1nnc(-c2ccccc2NC(=O)CC)c(=O)[nH]1	1.5%	i	-0.38
CCCCn1c(C)cc2cc(O)ccc21	-12.8%	i	-0.46
COc1ccccc1N(CC(O)CN(c1ccccc1)S(C)(=O)=O)S(=O)(=O)c1ccccc1 (stereo unspecified)	2.1%	i	0.24
CC(=O)C(C)Oc1ccc2c3c(c(=O)oc2c1)CCCC3 (stereo unspecified)	-4.7%	i	-0.74

Part of the list above in order of heavy-atom count, highest first.
Molecule	Hsc70	MT1-MMP promoter	WNV protease inh
COc1ccccc1N(CC(O)CN(c1ccccc1)S(C)(=O)=O)S(=O)(=O)c1ccccc1 (stereo unspecified)	2.1%	i	0.24
CCCSc1nnc(-c2ccccc2NC(=O)CC)c(=O)[nH]1	1.5%	i	-0.38
CC(=O)C(C)Oc1ccc2c3c(c(=O)oc2c1)CCCC3 (stereo unspecified)	-4.7%	i	-0.74

(next part)
Under each structure: Hsc70, MT1-MMP promoter, WNV protease inh
- CCOC(=O)C1CCN(C(=O)C2CCN(S(=O)(=O)c3cc(Cl)ccc3Cl)CC2)CC1
→ 5.0%, i, -0.11
- C=CCN(CC=C)C(=O)C1CC(=O)N(c2ccc(Br)cc2)C1 (stereo unspecified)
→ 0.5%, i, -0.93
- CC1Cc2nc(SCC(=O)N3CCCC3)n(C)c(=O)c2S1 (stereo unspecified)
→ 4.7%, i, -0.11
- CNC(=O)CSc1nnc(-c2cccnc2)n1CCc1ccccc1
→ -2.7%, i, 0.05
- C=Cn1ccnc1P(=S)(c1ccc2c(c1)c1ccccc1n2CC)c1nccn1C=C
→ -0.5%, i, 1.73
- CCOCCCNC(=O)CCCn1nc(C)n2c(cc3sccc32)c1=O
→ 3.3%, i, 0.00601
- CC1(C)C(=O)Nc2ccccc2N1C(=O)COc1ncnc2c(Cl)cc(Cl)cc12
→ -2.2%, i, .
- O=C(Nc1cccc(NC(=O)c2ccc(-c3ccc(Br)cc3)o2)c1)c1ccco1
→ -1.2%, i, .
- CCN1C(=O)c2cccc3c(N)ccc1c23
→ 3.4%, i, -0.9
- c1ccc(Cc2nnc3sc(-c4ccncc4)nn23)cc1
→ 0.7%, i, 0.09
- Clc1ccsc1-c1ccc2ccccc2n1
→ -5.2%, i, .
- CCOC(=O)c1cc(CNC(=O)c2c(C)oc3c2CCCC3)c(C)o1
→ 3.4%, i, -0.61
- CCCN1C(=O)c2ccccc2NC1c1ccc(OC)cc1OC (stereo unspecified)
→ 4.1%, i, 0.3
- CN(C)C(=O)N1CCC(C(=O)NCC2CCCO2)CC1 (stereo unspecified)
→ -5.4%, i, 1.75
- CCN(CC)C(=O)Cc1cc(C(=O)O)c2ccccc2n1
→ 7.4%, i, 0.47
- CCOc1cc(C(=O)N2CCN(C/C=C/c3ccccc3)CC2)cc(OCC)c1OCC
→ -2.6%, i, .
- COc1ccc(Nc2nc(N)nc(CSc3nnc(C)s3)n2)cc1
→ 6.9%, i, .
- Cc1occc1-c1nnc(SCC(=O)N2c3ccccc3CCc3ccccc32)n1C
→ -9.5%, i, 1.74
- CC(NS(C)(=O)=O)C(c1cccs1)N1CCN(c2ccc(F)cc2)CC1 (stereo unspecified)
→ -9.9%, i, -0.77
- O=C(Nc1cccc(Br)c1)c1ccc(Cl)c(S(=O)(=O)N2CCOCC2)c1
→ -2.5%, i, .
- COc1ccccc1C(=O)N1CCc2ccccc21
→ 2.4%, i, 0.01
- CC1CN(S(=O)(=O)c2ccc(NC(=O)CCCN3C(=O)c4ccccc4C3=O)cc2)CC(C)O1 (stereo unspecified)
→ -2.8%, i, 0.16
- COCC(=O)Nc1ccc(N(C)C)cc1
→ 1.4%, i, -1.45
- COC(=O)c1sc(N)c(C(=O)OC)c1CSc1nnc(-c2ccccc2Cl)n1C
→ -8.5%, i, -0.62
- CCOc1ccc2c(C)nc(NC3=NC(C)(C)C=C(C)N3)nc2c1
→ 3.7%, i, 1.14
- CN1CCN(CC(=O)Nc2ccc(Cl)cc2Cl)CC1
→ -1.1%, i, 0.9
- Cc1cc(NC2C3CC4CC(C3)CC2C4)n2nnnc2n1 (stereo unspecified)
→ 10.8%, i, -0.03
- Nc1ccnc(C(F)(F)F)c1C(=O)c1ccccc1
→ -0.5%, i, -0.43
- O=C(CN(Cc1ccccc1)C(=O)c1ccco1)NCc1ccc(F)cc1
→ -3.5%, i, -0.58
- CCOC(=O)C1CCN(C(c2ccccn2)c2c(C)[nH]c3ccccc23)CC1 (stereo unspecified)
→ 0.5%, i, .

Additional compounds.
Under each structure: Hsc70, MT1-MMP promoter, WNV protease inh
- COc1ccc(C(CC(=O)Nc2nccs2)n2cccc2)cc1 (stereo unspecified)
→ -0.5%, i, -0.33
- O=C(NC(O)C(=O)c1cccs1)c1cccnc1 (stereo unspecified)
→ 1.7%, i, 0.5
- O=C(C1CCCN(Cc2ccc3c(c2)OCO3)C1)N1CCCC1 (stereo unspecified)
→ 1.5%, i, 0.13
- Nc1c(C(=O)NC2CCCC2)c2nc3ccccc3nc2n1/N=C/c1ccco1
→ -1.3%, i, .
- CCCc1noc2c1C(c1ccoc1)C(C#N)=C(N)N2 (stereo unspecified)
→ 7.7%, i, 0.72
- O=C(NCC1CCCO1)C(c1ccc(F)cc1)N(Cc1ccc(F)cc1)C(=O)Cn1nnc(-c2cccs2)n1 (stereo unspecified)
→ -5.2%, i, .
- CC(=O)c1cccc(S(=O)(=O)N2CCN(c3nc4cc(C)cc(C)c4cc3C#N)CC2)c1
→ -15.0%, i, 0.27
- O=C(Cn1cnc2c(cnn2-c2ccccc2)c1=O)c1ccc(Cl)cc1
→ -0.3%, i, -0.85
- O=C(c1ccc(C(=O)N2CCCc3ccccc32)nc1)N1CCCc2ccccc21
→ 7.2%, i, 1.4
- COC(=O)C1C(=O)C=C(N2CCOCC2)CC1(C)C (stereo unspecified)
→ -9.5%, i, -0.67
- CCOc1ccc(CCNC(=O)Cn2c(-c3nonc3N)nc3ccccc32)cc1OCC
→ -20.0%, i, 2.57
- Cc1ccc2c(CSc3nncs3)cc(=O)oc2c1
→ 0.8%, i, 0.15
- COc1nc(NC2CCCCC2)nc(N2CCCCCC2)n1
→ -1.5%, i, .
- N#Cc1c(NC(=O)CSc2ccccn2)oc(-c2ccccc2)c1-c1ccccc1
→ 2.5%, i, .
- CCCOc1ccc(N2C(=O)CC(N3CCN(c4ccccc4F)CC3)C2=O)cc1 (stereo unspecified)
→ -1.7%, i, -1.42
- Cc1ccc(S(=O)(=O)C2(C(=O)Nc3cccnc3)CC2)cc1
→ 3.9%, i, -1.05
- CC(C)N(C(=O)CSc1nnc(CNc2ccc(F)cc2)o1)C(C)C
→ 2.3%, i, .
- Cn1c(=O)c2c(nc(Br)n2CC(=O)C23CC4CC(CC(C4)C2)C3)n(C)c1=O
→ -1.9%, i, 1.66
- COc1cccc(-c2nnc(SCC(=O)Nc3ccc4c(c3)OCCO4)n2Cc2ccco2)c1
→ 1.0%, i, -0.31
- COc1ccc(OC)c(-n2cnnn2)c1
→ 0.2%, i, 0.1
- Cc1ccc(-c2cc(-c3nnc(SCC(=O)NC(C)C(C)C)n3N)c3ccccc3n2)cc1 (stereo unspecified)
→ 1.6%, i, .
- C/C(=N\NC(=S)NCCc1ccccc1)c1ccc(C)cc1
→ 0.7%, i, .
- COc1ccc2c(c1)CCc1c(C(=O)N3CCCc4ccccc43)noc1-2
→ -6.6%, i, -0.58
- COc1ccc(OC(=O)c2cc(S(=O)(=O)N3CCCC3)ccc2Cl)cc1
→ -1.3%, i, .
- COc1ccc(CNC(=S)Nc2ccccc2C)cc1
→ 2.7%, i, .
- COc1ccc(N2COC3c4cccc5cccc(c45)C32)cc1 (stereo unspecified)
→ 4.1%, i, .
- Brc1cccc(-c2nnc3sc(CNCc4ccco4)cn23)c1
→ 3.5%, i, 0.06

Assay outcomes as filed in PubChem.
